Mtb betalactam: beta-lactam sensitization of Mtb H37Rv; M. tuberculosis H37Rv growth with meropenem, percent inhibition; hits of this screen are not shown here; inhibition, % at 25 µM; hit rate 0.27% among 330,000; AID 434955;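 active = about 74% or more and at least 40 points above the plate without the antibiotic, then above 30% in a dose series; inconclusive = first-round hits that could not be retested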;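 also: growth measured after seven days incubation then overnight dye step; 0% = bacteria only wells and 100% = bacteria with antibiotic; twin plates without the antibiotic show which effects depend on it; some results filed as inactive read as strong as hits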
Arbovirus inh: antivirals against arbovirus infection. inhibition, % at 10 µM. arbovirus infection cell-based antiviral screen. hit rate 0.37% among 200,000;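 active = inhibition from about 30%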;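 also: bluetongue infection of BSR cells; cell survival read as ATP light after 72 h; 0% = infected wells without compound and 100% = uninfected wells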
RecA splice inh: Mtb RecA intein splicing inhibition; inhibition, %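 (about 9 µM by stock and volumes)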; cell-free RecA intein splicing, fluorescence; hit rate 0.75% among 290,000; P9WHJ3; in the data active = inhibition above about 30%; inconclusive = no clear call, values can overlap the other calls;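 also: 0% = vehicle wells and 100% = reference inhibitor control wells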
Target sequence (P9WHJ3 whole entry, looked up, canonical isoform): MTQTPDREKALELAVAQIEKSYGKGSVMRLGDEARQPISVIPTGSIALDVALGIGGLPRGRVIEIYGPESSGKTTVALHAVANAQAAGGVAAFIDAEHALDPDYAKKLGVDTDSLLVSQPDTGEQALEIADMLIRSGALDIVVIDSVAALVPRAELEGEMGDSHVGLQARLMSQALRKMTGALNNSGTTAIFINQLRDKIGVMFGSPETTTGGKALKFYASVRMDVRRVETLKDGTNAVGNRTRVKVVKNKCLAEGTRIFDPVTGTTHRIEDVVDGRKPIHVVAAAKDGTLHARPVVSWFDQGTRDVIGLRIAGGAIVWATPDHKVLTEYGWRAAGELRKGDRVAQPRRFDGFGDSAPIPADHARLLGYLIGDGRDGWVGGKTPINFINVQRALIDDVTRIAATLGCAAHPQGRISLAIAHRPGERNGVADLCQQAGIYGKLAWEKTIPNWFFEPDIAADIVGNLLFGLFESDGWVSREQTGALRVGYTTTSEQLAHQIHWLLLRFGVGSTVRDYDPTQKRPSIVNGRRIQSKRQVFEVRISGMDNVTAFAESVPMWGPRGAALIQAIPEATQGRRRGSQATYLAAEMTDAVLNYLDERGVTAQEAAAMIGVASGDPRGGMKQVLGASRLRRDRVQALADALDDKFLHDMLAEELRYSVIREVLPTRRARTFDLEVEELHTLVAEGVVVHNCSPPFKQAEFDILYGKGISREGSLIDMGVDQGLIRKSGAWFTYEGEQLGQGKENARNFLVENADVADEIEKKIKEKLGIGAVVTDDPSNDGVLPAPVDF
Mtb growth: M. tuberculosis H37Rv growth inhibitors, H37Rv strain (AID 1626) | hit rate 0.95% among 220,000 | M. tuberculosis H37Rv growth inhibition; higher % means a stronger effect | inhibition, % at 10 µM, or IC50 in µM where a hit was titrated;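 active = confirmed in a dose series; inconclusive = inhibition above 80% but not taken into the dose series; inactive = below 80% or under 30% at every dose of the series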;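 also: bacteria incubated seven days before Alamar blue readout; 0% = bacteria only wells and 100% = bacteria with antibiotic wells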
YopH PTP inh: inhibitors of Yersinia enterocolitica YopH tyrosine phosphatase. fluorescence Ex485/Em525. inhibition, %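 (about 10 µM by stock and volumes)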. hit rate 0.16% among 140,000. AID 898;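 active = inhibition of 50% or more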;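 also: controls were vehicle for no effect and minimum signal wells for full effect; inactives centre near -20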
Arbovirus inh repeat: recorded beside Arbovirus inh, whose call it bears; inhibition, %; measured here: 10K subset replicate screen; many hits read low in the repeat;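 first of two repeat runs on a subset; 0% = infected and 100% = uninfected wells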
The depositor's hits bear a star; ? = inconclusive; / = no result given. Not all compounds are listed (hit frequency here may not be typical).

SMILES	Mtb betalactam	Arbovirus inh	RecA splice inh	Mtb growth	YopH PTP inh	others
Cc1ccc2c(c1)c(N=Nc1ccc([N+](=O)[O-])cc1)c(O)n2C	12	/	3.8	/	/
CC(C)(C)C(=O)NC1=NCCS1	-5	-2	4.8	-2%	-19
Cc1ccc(-n2c(C(C)C)nc3oc4ccccc4c(=O)c3c2=O)cc1	-3	/	0.2	0%	/
O=C1NC(=Nc2ccccc2)c2c1cccc2[N+](=O)[O-]	1	0	-9.7	-3%	-1
COc1ccc(-n2c(C)cc(SC)c(C(C)=O)c2=S)cc1	-4	2	0.2	1%	-4
O=C(CCCOc1ccc(Cl)cc1Cl)N/N=C\C1CCCCC1	92	-16	3.3	-7%	-25
CCCOc1ccc(-c2cc(C(F)(F)F)c(C#N)c(SCC(=O)O)n2)cc1	-5	13	-9.4	6%	/
C[C@H](c1ccccc1)n1nnc(COCc2ccccc2)c1C#CCOCc1ccccc1	-1	/	12	-4%	/
O=C1CCNCCN1[C@H](CO)c1ccccc1	-1	/	-4.3	/	/
CC(C)C[C@H](NC(=O)c1nc[nH]c1C(=O)NCC(=O)OC(C)(C)C)C(=O)OCc1ccccc1	2	/	-0.3	-15%	/
O=c1c2ccccc2oc2ccc(-c3ccc4[nH]ccc4c3)cc12	16	/	10	3%	/
CCN1CCC2(CC1)Oc1c(OC)cccc1C1CC(c3cccnc3)=NN12 (stereo not given)	-1	/	/	-7%	/
Cc1cc(S(=O)(=O)Nc2ccccc2C)ccc1F	-6	2	1.7	-10%	-6
COC(=O)NCC(C)OC(=O)Nc1ccc(Cl)cc1 (stereo not given)	-5	-2	2.9	0%	/
FC(F)(F)c1nnc2c3ccccc3c(Cl)nn12	-3	/	5.2	/	/
COc1ccc(CNC(=O)CCS(=O)(=O)c2ccc(Br)cc2)cc1	-3	/	-0.5	/	/
COc1ccc(NC(=O)Cn2cnc3sc(C)c(S(=O)(=O)N4CCN(C)CC4)c3c2=O)cc1OC	-6	-4	3.9	5%	/
C=CCn1c(SC(C)C#N)nc2sc(CC)cc2c1=O (stereo not given)	-2	-5	3.2	11%	/
CC(=O)NCCc1nc2ccccc2n1CCOc1ccccc1	2	/	1.2	-10%	/
S=c1nc(C2CCCCC2)[nH][nH]1	7	0	-2.1	-16%	-17

Copied from the results shown (16 entries):
SMILES	Mtb betalactam	Arbovirus inh	RecA splice inh	Mtb growth	YopH PTP inh	others
Cc1ccc2c(c1)c(N=Nc1ccc([N+](=O)[O-])cc1)c(O)n2C	12	/	3.8	/	/
CC(C)(C)C(=O)NC1=NCCS1	-5	-2	4.8	-2%	-19
Cc1ccc(-n2c(C(C)C)nc3oc4ccccc4c(=O)c3c2=O)cc1	-3	/	0.2	0%	/
O=C1NC(=Nc2ccccc2)c2c1cccc2[N+](=O)[O-]	1	0	-9.7	-3%	-1
COc1ccc(-n2c(C)cc(SC)c(C(C)=O)c2=S)cc1	-4	2	0.2	1%	-4
O=C(CCCOc1ccc(Cl)cc1Cl)N/N=C\C1CCCCC1	92	-16	3.3	-7%	-25
CCCOc1ccc(-c2cc(C(F)(F)F)c(C#N)c(SCC(=O)O)n2)cc1	-5	13	-9.4	6%	/
C[C@H](c1ccccc1)n1nnc(COCc2ccccc2)c1C#CCOCc1ccccc1	-1	/	12	-4%	/
O=C1CCNCCN1[C@H](CO)c1ccccc1	-1	/	-4.3	/	/
CC(C)C[C@H](NC(=O)c1nc[nH]c1C(=O)NCC(=O)OC(C)(C)C)C(=O)OCc1ccccc1	2	/	-0.3	-15%	/
O=c1c2ccccc2oc2ccc(-c3ccc4[nH]ccc4c3)cc12	16	/	10	3%	/
CCN1CCC2(CC1)Oc1c(OC)cccc1C1CC(c3cccnc3)=NN12 (stereo not given)	-1	/	/	-7%	/
Cc1cc(S(=O)(=O)Nc2ccccc2C)ccc1F	-6	2	1.7	-10%	-6
COC(=O)NCC(C)OC(=O)Nc1ccc(Cl)cc1 (stereo not given)	-5	-2	2.9	0%	/
FC(F)(F)c1nnc2c3ccccc3c(Cl)nn12	-3	/	5.2	/	/
COc1ccc(CNC(=O)CCS(=O)(=O)c2ccc(Br)cc2)cc1	-3	/	-0.5	/	/

Quoted at random: 4 compounds from above.
SMILES	Mtb betalactam	Arbovirus inh	RecA splice inh	Mtb growth	YopH PTP inh	others
O=C1NC(=Nc2ccccc2)c2c1cccc2[N+](=O)[O-]	1	0	-9.7	-3%	-1
C=CCn1c(SC(C)C#N)nc2sc(CC)cc2c1=O (stereo not given)	-2	-5	3.2	11%	/
O=C(CCCOc1ccc(Cl)cc1Cl)N/N=C\C1CCCCC1	92	-16	3.3	-7%	-25
CC(=O)NCCc1nc2ccccc2n1CCOc1ccccc1	2	/	1.2	-10%	/

(more compounds)
SMILES	Mtb betalactam	Arbovirus inh	RecA splice inh	Mtb growth	YopH PTP inh	others
COc1cc(NC(=O)CSc2nc3ccccc3cc2Cc2ccccc2)cc(OC)c1	6	-2	0.5	-3%	-25
Nn1c(=S)[nH]c2sc3c(c2c1=O)CCCC3	33	/	-1.0	/	/
COC(=O)[C@H](Cc1ccccc1)N(C)S(=O)(=O)c1cccc(S(=O)(=O)N(C)[C@@H](Cc2ccccc2)C(=O)OC)c1	-13	/	2.3	/	/
CCCCOC(=O)Sc1nc2ccccc2o1	?	-4	2.1	-3%	-47
Oc1ccccc1/C=N/Nc1cccc2cccnc12	-3	-4	11	-7%	22
O=S1(=O)CC/C(=N/Nc2ccc(C(F)(F)F)cn2)c2cc(F)ccc21	10	-17	10	2%	/
CCOC(=O)C1=Nc2ccccc2/C1=C\c1c(O)n(C)c(=O)n(C)c1=O	-4	/	1.8	-5%	/
Cc1ccc(O)c(C(=O)c2cc(C#N)c(=O)n(C(C)c3ccccc3)c2)c1 (stereo not given)	-5	8	0.9	0%	/
COc1ccc(OC)c(C(C(=O)NCc2ccco2)N(C(=O)Cn2nnc3ccccc32)C2CC2)c1 (stereo not given)	3	7	-15	-1%	-16
Cc1ccc(CNc2ccc(Cl)cc2[N+](=O)[O-])cc1	0	-7	-0.1	/	-8
Oc1ccc(/C=N/Nc2cc(N3CCCC3)nc(N3CCCC3)n2)cc1	7	-3	7.1	24%	-35
COc1ccccc1C(=O)NC(=S)Nc1ccc(S(=O)(=O)N2CCN(C)CC2)cc1	3	4	-3.7	-5%	-35
CCOC(=O)N1CCN(Cc2nc3cc(NC(C)=O)ccc3n2CC)CC1	-7	/	-0.4	/	/
OCCCN1CCN(CCOc2ccccc2-c2ccccc2)CC1	-3	-7	-0.4	0%	-31
COc1ccc(N(C(=O)c2ccco2)S(=O)(=O)c2cccc([N+](=O)[O-])c2)cc1	-2	6	0.5	3%	-14
Cn1cc(CN2CCC(C(=O)N3CCCC3)CC2)c(-c2ccccc2F)n1	-3	2	1.0	-1%	/
Cn1c(-c2ccccc2)cnc1N	-2	-15	3.7	4%	-1
Cc1cc(C)n2[nH]c(=O)c(N=Nc3cccc(C(F)(F)F)c3)c2n1	95	-28	-0.8	47%	-9
CC1=C(n2nnc3ccccc32)C(c2ccccc2)C(C#N)=C(N)O1 (stereo not given)	9	26	3.9	-2%	-1
C/C(NC1CCCC1)=C(/C#N)C(N)=O	-2	-3	-1.8	6%	2
CCCCCCn1cc(C(=O)O)c(=O)c2cc(F)c(N3CCN(C(=O)OCC)CC3)cc21	4	/	-0.9	/	/
CCn1c2ccccc2c2cc(/C=N/NC(=O)c3ccncc3)ccc21	98	-16	4.1	?	/
CCN1CCN(c2nc(Nc3cc(OC)ccc3OC)nc(Nc3cc(OC)ccc3OC)n2)CC1	66	/	1.4	29%	/
O=c1ccc2cc([N+](=O)[O-])c(CCO)cc2o1	-11	/	6.1	/	/
COc1ccccc1NC(=O)N(CCN(C)C)Cc1cc2cc(C)ccc2[nH]c1=O	-3	3	1.3	-9%	-49
COCCNC(=O)CN1C(=O)CN=C(c2ccccc2)c2ccccc21	-4	/	-3.5	12%	/
CCn1c(SCC(=O)N2CCCC(C)C2)nnc1-c1ccco1 (stereo not given)	-7	/	-1.8	/	/
Cn1c(NCC(O)CO)nc2c1c(=O)n(Cc1ccc(Cl)c(Cl)c1)c(=O)n2C (stereo not given)	0	14	1.1	3%	-36
O=C(N/N=C\c1c(O)ccc2ccccc12)c1cncc(Br)c1	-1	/	0.9	/	/
O=C(CN1CCCN(Cc2ccc(F)cc2Cl)C1=O)NC1CCCC1	3	-1	1.6	-5%	/
CCOc1nc(-c2ccccc2)c2cc(Br)ccc2n1	5	/	0.2	/	/
O=C(CNCC(=O)Nc1ccc(F)c(F)c1F)Nc1ccc(F)c(F)c1F	-10	/	-0.5	/	/
COCCn1c(SCC(=O)Nc2ccccc2C)nc2c(oc3ccccc32)c1=O	1	-8	-2.0	4%	-29
CCOCCn1c(CC)nc2ccccc21	-11	0	0.6	3%	/
O=C(Cc1cccc2ccccc12)NCCOc1ccccc1F	6	-8	-0.2	0%	/
Cc1cccc2cc(C#N)c(SCC(=O)NNC(=O)Cc3ccccc3)nc12	5	-11	0.4	-6%	-16
Cc1ccc(CNC(=O)C2CCN(S(=O)(=O)c3cccc4nonc34)CC2)cc1	-1	/	-0.6	/	/
CC(C)CC(=O)CN1C(=O)C2(OCCO2)c2ccccc21	-4	-3	-0.3	-3%	-3
CNC(=O)c1[nH]cnc1C(=O)N[C@@H](Cc1ccccc1)C(=O)OC(C)(C)C	-8	0	1.6	-7%	/
CCn1ncc(/C=N/O)c1C	-8	3	4.0	-6%	-7
CC(Sc1nnc(-c2ccc(O)cc2)o1)C(=O)Nc1cccc2ccccc12 (stereo not given)	-3	3	0.7	-2%	-19
CCOC(=O)c1c(C=O)c2sc(C)cc2n1C	9	25	-7.8	-1%	/
COc1ccc2cc(C(=O)C3CCCN(C(=O)c4cnn(C(C)C)c4)C3)ccc2c1 (stereo not given)	6	/	1.8	/	/
COc1cc(OC)c2cc(C(=O)N/N=C/c3cccc(OC)c3O)[nH]c2c1	0	/	2.9	-1%	/
O=C(Nc1nccs1)c1ccc(-c2ccccc2[N+](=O)[O-])o1	13	/	3.0	/	/
C#CCCOC(=O)N1C2=NC(C(=O)OC)=C(C(=O)OC)[C@@H]3N(Cc4ccccc4)c4ccccc4[C@]23C[C@H]1C(=O)OC	-2	/	6.5	-3%	/
Cc1cccc(NC(=O)c2cc(S(=O)(=O)NCc3ccco3)ccc2F)c1C	-2	-2	1.7	2%	-35
Clc1ccc(Sc2oc(/C=N/n3cnnc3)cc2Br)cc1	2	5	63*	3%	-32	Arbovirus inh repeat=3
CC(=O)N1c2ccc(S(=O)(=O)N3CCCC(C(=O)NCc4ccccc4Cl)C3)cc2CC1C (stereo not given)	8	/	-0.3	/	/
C=CCn1c2ccccc2c2nnc(SC(CC)C(=O)Nc3nc(C)c(C(=O)OCC)s3)nc21 (stereo not given)	0	0	3.5	/	-59
CCOC(=O)c1sc2ncnc(N3CCN(C)CC3)c2c1C	6	7	-1.4	6%	/
CCOC(=O)c1sc(Nc2nc(C)cc(OC)n2)nc1C	6	-13	11	1%	/

From PubChem BioAssay
